# Bioassay records: PubChem BioAssay, Johns Hopkins Ion Channel Center
# KCNQ2 inh: KCNQ2 potassium channel inhibitors, primary screen, cell-based, CHO-K1, FluxOR thallium flux, B-score (AID 2156); hit rate 1.1% among 310,000; Potassium voltage-gated channel subfamily KQT member 2 (Rattus norvegicus), O88943; 20 min; active compounds read low; only compounds with negative scores are shown here; some inactives read as strong as hits; B-score at 10 µM;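 active means fluorescence ratio B-score at most minus 3 library SDs, with starting brightness B-score within 2 library SDs, cut at about -5.5 in these data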
# Target sequence (O88943 whole entry, looked up): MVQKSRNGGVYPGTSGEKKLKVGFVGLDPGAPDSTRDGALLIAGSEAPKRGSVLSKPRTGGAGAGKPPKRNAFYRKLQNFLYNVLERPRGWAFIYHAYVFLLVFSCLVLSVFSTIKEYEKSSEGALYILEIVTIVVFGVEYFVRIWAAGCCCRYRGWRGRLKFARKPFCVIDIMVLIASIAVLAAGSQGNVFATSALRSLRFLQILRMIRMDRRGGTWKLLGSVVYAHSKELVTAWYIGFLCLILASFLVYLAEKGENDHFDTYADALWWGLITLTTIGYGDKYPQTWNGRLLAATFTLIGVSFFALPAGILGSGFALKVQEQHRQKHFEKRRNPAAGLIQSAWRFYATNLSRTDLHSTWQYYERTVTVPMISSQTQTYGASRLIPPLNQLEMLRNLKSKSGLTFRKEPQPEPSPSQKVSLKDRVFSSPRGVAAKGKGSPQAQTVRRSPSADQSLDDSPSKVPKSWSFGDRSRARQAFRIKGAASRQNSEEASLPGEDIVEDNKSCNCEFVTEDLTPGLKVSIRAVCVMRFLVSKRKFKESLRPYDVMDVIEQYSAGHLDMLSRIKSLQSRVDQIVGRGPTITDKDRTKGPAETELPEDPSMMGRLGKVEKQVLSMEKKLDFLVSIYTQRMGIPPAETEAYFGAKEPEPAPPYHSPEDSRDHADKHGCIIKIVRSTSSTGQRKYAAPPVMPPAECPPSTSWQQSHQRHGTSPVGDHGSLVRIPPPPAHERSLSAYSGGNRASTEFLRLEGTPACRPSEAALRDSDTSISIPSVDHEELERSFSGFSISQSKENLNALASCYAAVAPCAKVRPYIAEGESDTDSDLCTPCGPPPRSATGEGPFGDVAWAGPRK
# KCNQ2 inh baseline: recorded beside KCNQ2 inh, whose call it bears; B-score; measured here: initial fluorescence intensity artifact check;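 brightness before thallium and not channel activity; 0 = typical well and far values either way flag optical interference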
# Starred values were filed as active, the others as inactive; i = inactive. A portion of the library; count on the stated rates, not on these rows.
entry	KCNQ2 inh	KCNQ2 inh baseline	SMILES
1	i	-0.9	Cc1nn(C)cc1CNCc1ccc(OCC(O)CN(C)Cc2ccccc2)cc1 (stereo not drawn)
2	i	-0.06	O=C(NC1CC2CCCC(C1)N2S(=O)(=O)c1ccccc1)C1CCCCC1 (stereo not drawn)
3	i	-0.01	Cc1ccc2nc(N(CCCN(C)C)C(=O)c3ccc4ncsc4c3)sc2c1
4	i	-0.31	Cc1cc(C)cc(NC(=S)NN)c1
5	i	-0.43	CCOCCCn1c(SCc2nc3ccccc3s2)nc2ccccc2c1=O
6	i	-0.48	CCCCNC(=S)NCCN1CCN(C(=S)NCCCC)CC1
7	i	1.2	Cc1cc(C(=O)Nc2ccc(CC(=O)O)cc2)c(C)o1
8	i	-1.1	Cc1cccc(N2CCN(S(=O)(=O)c3ccc4c(c3)CCCN4C(=O)C3CCC3)CC2)c1C
9	i	-0.33	O=C(c1ccco1)c1cn(CC(=O)N2CCCc3ccccc32)c2ccccc12
10	i	-4	CCn1cc(C(=O)OCC(=O)NCc2ccccc2Cl)c(=O)c2ccc(C)nc21
11	i	2	CCc1nc2ccc(C(=O)N3CCN(c4ccc(Cl)cc4)CC3)cc2nc1CC
12	i	3	O=C(CN1C(=O)S/C(=C\c2ccccc2F)C1=O)NCCCn1ccnc1
13	i	1.1	CC(=N\Nc1ccc(Cl)cc1)/C(=N/O)C(=O)Nc1ccccc1
14	i	0.07	O=C(NCC1CCN(Cc2cccc(Cl)c2)CC1)Nc1ccc(Cl)cc1
15	i	-1.2	O=C(C[n+]1ccccc1)Nc1ccccc1Br
16	i	-0.35	COc1cccc(CCNC(=O)COc2cccc3c2OC(C)(C)C3)c1
17	i	-0.71	CCN(CC)C(=O)CSc1nnc(-c2cccs2)n1Cc1ccco1
18	i	-0.07	N#Cc1ccc(NC(=O)COC(=O)CCc2nc3ccccc3c(=O)[nH]2)cc1
19	i	-0.2	O=C(CCS(=O)(=O)Cc1ccccc1F)NCCc1ccc(Cl)cc1
20	i	0.48	CC(=O)OCCCN1c2ccccc2Nc2nnc(-c3ccccc3)cc21
21	i	0.99	CCOCCCNc1c(CC)c(C)c(C#N)c2nc3ccccc3n12
22	i	0.25	O=C(CSc1nnc(CNC(=O)c2ccco2)o1)NC1CCCC1
23	i	0.17	O=C(COc1ccccc1)N1CCN(C(=O)c2ccccc2F)CC1
24	i	0.26	Cc1ccc2[nH]c(=O)c(C(c3nnnn3CCc3ccccc3)N3CCOCC3)cc2c1 (stereo not drawn)
25	i	-0.11	O=C(O)CSCC(=O)NCc1ccccc1Cl
26	i	2.3	Cc1ccc(NC(=O)Cc2ccccc2Cl)cc1S(=O)(=O)N(C)C
27	i	0.77	O=c1c([N+](=O)[O-])cccn1Cc1cccc(Br)c1
28	i	2.1	O=C(Oc1cccnc1)c1ccccc1[N+](=O)[O-]
29	i	1.5	COc1ccc(OC)c(-c2csc(NC(=O)Cc3cccs3)n2)c1
30	i	0.15	COC(=O)c1c(C(=O)OC)c2ccncn2c1Cl
31	i	-0.01	Cn1cc([N+](=O)[O-])c(C(=O)NCc2ccco2)n1
32	i	-0.03	Cc1c(-c2ccccc2Cl)nc2ccccc2c1C(=O)O
33	i	0.05	COc1ccc2cc(C(=O)N3CCN(c4ccc(F)cc4)CC3)[nH]c2c1
34	i	-0.94	Cc1cccc(-c2nc3cc([N+](=O)[O-])ccc3o2)c1
35	i	-0.15	COc1ccc(CN(C)C(=O)CC(c2ccccc2)c2ccccc2)cc1
36	i	-0.66	CCOc1ccc(NC(=O)c2cn(CC(C)C)c(=O)c3c2c2ccccc2n3C)cc1
37	i	0.63	COC(=O)c1[nH]c2ccc(C)cc2c1NC(=O)Nc1ccccc1OC
38	i	2.3	CC1CCCCN1CC(=O)Nc1cc(S(=O)(=O)N2CCOCC2)ccc1N1CCCC1 (stereo not drawn)
39	i	3.7	CCOC(=O)c1c(NC(=O)OC)sc(C(=O)N(C)C)c1C
40	i	-0.16	Cc1ccc(-n2cc(C(=O)c3cc(Cl)ccc3O)cc(C#N)c2=O)cc1
41	i	1.9	O=S(=O)(/N=C(/Nc1ccccn1)c1ccccc1)c1ccccc1
42	i	1.4	COc1ccc(C2C=C(c3ccccc3)Nc3nc(NC(C)=O)nn32)cc1 (stereo not drawn)
43	i	0.51	CN(C[C@H](Cc1ccccc1)N(C[C@H](Cc1ccccc1)N(CCc1cc(C(F)(F)F)cc(C(F)(F)F)c1)N=O)N=O)N=O
44	i	2	C=CCc1ccc(OCC(O)CN2CCN(c3ccccc3OC)CC2)c(OC)c1 (stereo not drawn)
45	i	0.53	C=CCOc1cccc(C(=O)N2CCCC(CCC(=O)NCc3ccccc3F)C2)c1 (stereo not drawn)
46	i	1.5	Cc1cc2cc(CNC(=O)COc3ccccc3)ccc2n1C
47	i	1.3	Cc1cc(C)cc(NC(=O)CCn2c(=S)[nH]c3ccccc3c2=O)c1
48	i	1.7	O=C(Cn1nnc(-c2ccc(F)cc2)n1)N1CCCCC1
49	i	-0.34	O=C(O)C1CC(=O)n2c(nc3ccccc32)S1 (stereo not drawn)
50	i	0.42	Cc1ccccc1-n1c(SCC(=O)NCc2cccs2)nc2ccccc2c1=O
51	i	-0.78	CC(=O)N1CCN(S(=O)(=O)c2ccc(C)cc2)C1c1ccc(N(C)C)cc1 (stereo not drawn)
52	i	-2	O=C(CN(CC1CCCO1)C(=O)CNS(=O)(=O)c1ccccc1)NCCc1ccccc1 (stereo not drawn)
53	i	1.1	CC(C)c1ccc(N2CC(C(=O)Nc3nccs3)CC2=O)cc1 (stereo not drawn)
54	i	-0.75	Cc1ccc(N=Cc2c(O)c3ccccc3n(C)c2=O)cc1
55	i	0.07	O=C(NCC1CCCO1)C(C(=O)c1ccccc1)n1cc(Cl)ccc1=O (stereo not drawn)
56	i	0.02	O=C(NCc1ccco1)c1cc([N+](=O)[O-])ccc1N1CCOCC1
57	i	2	CC(C)CN1CCN(CCCc2ccccc2)C(CCO)C1 (stereo not drawn)
58	i	1.7	O=C(/C=C/c1ccccc1[N+](=O)[O-])c1ccc(F)cc1
59	-8.4*	0.7*	Cc1cc(-c2ccc(C(C)C)c(S(=O)(=O)N3CCC(C)CC3)c2)on1
60	i	1.6	Cc1[nH]c2ccccc2c1C(c1ccncc1)N1CCN(c2ccc(F)cc2)CC1 (stereo not drawn)

# The results go on:
entry	KCNQ2 inh	KCNQ2 inh baseline	SMILES
61	i	-0.56	O=C(CSc1nc2ccccc2[nH]1)c1cccs1
62	i	-0.46	O=C(Nc1ccc2c(c1)OCO2)Nc1ccccc1F
63	i	1.1	Cc1ccc(N2CCN(C(=O)NC3CCCCC3)CC2)c(C)c1
64	i	-0.01	CS(=O)(=O)N1N=C(c2ccco2)CC1c1cccc([N+](=O)[O-])c1 (stereo not drawn)
65	i	-0.18	Cc1ccccc1NC1(C#N)C(=O)Nc2ccccc21 (stereo not drawn)
66	-6.2*	0.87*	Cc1nc(SCC(=O)NC(C)(C)C)c2c(-c3cccs3)csc2n1
67	i	1.7	CCCc1nn(C)c(C(=O)Nc2ccc3ccccc3c2)c1Cl
68	i	1.6	CCCOc1ccc2oc(=O)c3c(c2c1)CCCN3C(=O)CN(C)Cc1ccccc1
69	i	0.67	CC[C@@]12C(=O)N(c3cccc(Cl)c3)C(=O)N1[C@H](c1ccc(Br)cc1)[C@@H]1C(=O)N(C(C)(C)C)C(=O)[C@@H]12
70	i	0.12	COc1ccc(NC(=O)c2cccc(Oc3ccc([N+](=O)[O-])cc3Cl)c2)cc1
71	i	-0.04	Cc1n[nH]c(=O)c2c(NC(=O)CSc3nnc(C4CC4)n3C)oc(C)c12
72	i	1.2	CC1Cc2cc(S(=O)(=O)N3CCCC(C(=O)N4CCCCC4)C3)ccc2N1C(=O)C1CC1 (stereo not drawn)
73	i	-1.3	CC(=O)Nc1ccc(N2C(C(C)=O)=NN(c3ccc(Cl)cc3)C2c2sccc2C)cc1 (stereo not drawn)
74	i	1.5	Cc1ccc(S(=O)(=O)c2c[nH]c3ccc(Cl)cc3c2=O)cc1
75	i	0.04	CCOc1cc(/C=N\NC(=O)c2c(C)nc3ccccn23)ccc1O
76	i	-0.35	O=C(Nc1cscc1S(=O)(=O)c1ccccc1)c1ccccc1Cl
77	i	-0.95	COc1ccc(COCCN2CCN(S(=O)(=O)c3ccccc3)CCC2=O)cc1
78	i	1.7	CCOC(=O)CNC(=O)Cn1cnc2sc(C)c(S(=O)(=O)N3CCC(C)CC3)c2c1=O
79	i	3.6	Cn1c(/C(C#N)=N/O)nc2ccccc21
80	i	0.77	O=C(CSc1nnnn1Cc1ccccc1)N1CCN(c2ccccc2)CC1
81	i	-0.94	CC(=O)Nc1ccc(NS(=O)(=O)c2cc(C)sc2C)cc1
82	i	-0.98	Cc1ccc(O)c(-c2cc3ccccc3[nH]2)c1
83	i	1.8	CNC(=O)c1cccc2nc3ccccc3nc12
84	i	-0.01	Cc1ccc(NC(=O)c2noc3c2CCc2ccccc2-3)cc1
85	-6.6*	0.19*	Cc1ccccc1OCC(=O)Nc1ccccc1-c1ccccc1
86	i	-0.87	CC(C)COc1ccc(C(=O)Nc2ccc(NC(=O)c3ccco3)cc2)cc1
87	i	0.06	Cc1cc(C)cc(NC(=O)Cn2ncn3c(cc4ccccc43)c2=O)c1
88	i	3.4	Cc1ccn2c(NC(=O)c3cccs3)c(-c3ccccc3)nc2c1
89	i	0.26	O=C(NC1(C(F)(F)F)N=C2SCCN2C1=O)c1cccnc1 (stereo not drawn)
90	i	2.2	COC(=O)c1ccc(Cl)c(NC(=O)CN2CCOCC2)c1
91	i	0.88	CN(Cc1cnccn1)C(=O)CC1C(=O)NCCN1CC(c1ccccc1)c1ccccc1 (stereo not drawn)
92	i	1.2	Cc1onc(-c2ccccc2Cl)c1C(=O)OCC(=O)c1ccccc1
93	i	1.8	COc1cc(C[C@H](C)[C@H](C)Cc2ccc3c(c2)OCO3)ccc1O
94	i	2.9	CCOc1ccc(NC(=O)CSc2nc3cccnc3n2CCOC)cc1
95	i	0.38	COc1cccc2cc(C(=O)NCc3ccc(F)cc3)c(=N)oc12
96	i	0.24	CC1=C(C(=O)OCc2ccccc2)N2C(=O)[C@@H](NC(=O)COc3ccccc3)[C@H]2SC1
97	i	0.11	CNC(=O)c1cc(S(=O)(=O)NCc2ccncc2)ccc1OC
98	i	0.8	O=C(Nc1ccc(Cl)c(Cl)c1)c1ccc(Cn2c(=O)[nH]c3ccsc3c2=O)cc1
99	i	23	c1ccc2c(c1)OCC(CNc1ncnc3nc[nH]c13)O2 (stereo not drawn)
100	i	-1.5	CCOC(=O)C(=NCCOC)NNc1cc(Cl)ccc1Cl
101	i	0.84	Cc1ccc(N(C)/N=C/c2ccc(Cl)cc2Cl)nn1
102	i	0.5	COc1ccc(CNC(=O)C2(c3ccc(Cl)cc3)CC2)cc1
103	i	-1	c1ccc2c(c1)CC(CN1CCNCC1)O2 (stereo not drawn)
104	i	-0.24	COc1ccc(S(=O)(=O)N(C)c2nc3ccccc3n3c(CC(C)C)nnc23)cc1
105	i	-2.4	C=CCn1c(Sc2nnc(C)s2)nc2c1c(=O)[nH]c(=O)n2C
106	i	-0.65	CCn1c(SCc2nc3ccccc3s2)nnc1-c1cccs1
107	-11*	-1.7*	CC[C@H](NC(=O)c1c(C)c(-c2ccccc2)nc2ccccc12)c1ccccc1
108	i	2.3	O=C(CC1SC(=Nc2ccccc2)N(CCCCO)C1=O)NCc1ccccc1 (stereo not drawn)
109	i	-0.13	COc1ccc(NC(=O)COC(=O)c2cc(OC)c(OC)c(OC)c2)c([N+](=O)[O-])c1
110	i	1.9	CC(C)C(NC(=O)c1cccnc1)C(=O)O (stereo not drawn)
111	i	-0.03	COc1ccc(N=C2SC(CC(=O)Nc3ccc(F)cc3)C(=O)N2Cc2ccco2)cc1 (stereo not drawn)
112	i	0.43	CCC(=O)N(CCc1ccccc1C)Cc1cc2ccc(C)cc2[nH]c1=O
113	i	0.9	O=C(NNC(=O)c1sc2ccccc2c1Cl)Nc1ccc(Cl)cc1
114	i	1.5	Cc1cccc(NC(=O)c2sc(C)nc2C)c1
115	i	-4.5	Oc1ccc(CNc2ccccc2O)cc1
116	i	1.2	COc1ccc2cc1Oc1ccc(cc1)CC1c3c(cc(OC)c4c3Oc3cc5c(cc3O4)CCNC5C2)CCN1C (stereo not drawn)
117	i	-1.4	Oc1ccc(N=Nc2nc(-c3ccccc3)c(-c3ccccc3)[nH]2)cc1
118	i	-0.68	CN(C)c1ccc(C(=O)Nc2nc3c(s2)CCCC3)cc1
119	i	1.6	COC(=O)CN1C(=O)S/C(=C/c2ccc(N3CCCCC3)o2)C1=O
120	-6*	-1.4*	COc1ccc(C2CC(c3cccs3)=Nc3ccccc3S2)cc1 (stereo not drawn)

# Entries from the list above containing two or more sulfur atoms, in the order listed:
entry	KCNQ2 inh	KCNQ2 inh baseline	SMILES
3	i	-0.01	Cc1ccc2nc(N(CCCN(C)C)C(=O)c3ccc4ncsc4c3)sc2c1
5	i	-0.43	CCOCCCn1c(SCc2nc3ccccc3s2)nc2ccccc2c1=O
6	i	-0.48	CCCCNC(=S)NCCN1CCN(C(=S)NCCCC)CC1
17	i	-0.71	CCN(CC)C(=O)CSc1nnc(-c2cccs2)n1Cc1ccco1
29	i	1.5	COc1ccc(OC)c(-c2csc(NC(=O)Cc3cccs3)n2)c1
50	i	0.42	Cc1ccccc1-n1c(SCC(=O)NCc2cccs2)nc2ccccc2c1=O
61	i	-0.56	O=C(CSc1nc2ccccc2[nH]1)c1cccs1
66	-6.2*	0.87*	Cc1nc(SCC(=O)NC(C)(C)C)c2c(-c3cccs3)csc2n1
76	i	-0.35	O=C(Nc1cscc1S(=O)(=O)c1ccccc1)c1ccccc1Cl
78	i	1.7	CCOC(=O)CNC(=O)Cn1cnc2sc(C)c(S(=O)(=O)N3CCC(C)CC3)c2c1=O
81	i	-0.94	CC(=O)Nc1ccc(NS(=O)(=O)c2cc(C)sc2C)cc1
105	i	-2.4	C=CCn1c(Sc2nnc(C)s2)nc2c1c(=O)[nH]c(=O)n2C
106	i	-0.65	CCn1c(SCc2nc3ccccc3s2)nnc1-c1cccs1
120	-6*	-1.4*	COc1ccc(C2CC(c3cccs3)=Nc3ccccc3S2)cc1 (stereo not drawn)
